# High-throughput results as filed in PubChem BioAssay.
# H5N1 antiviral – MDCK cell protection from H5N1 avian flu. hit rate 0.07% among 96,000. cytopathic effect, luminescence, 72 h; stronger effect = higher value; no value below 0 was filed and about half of the inactive calls have no number; reference of the scale not given here. inhibition, % at 50 µM; in the data active = inhibition above about 25%
# * hit, by the source's call; i = inactive. Not all compounds are listed (hit frequency here may not be typical).
SMILES,H5N1 antiviral
CCC(C)[C@H](NC(=O)NCc1cccc(OC)c1)C(=O)O (stereo partly specified),i
Cc1ccccc1CSc1nnc(-c2ccccn2)n1N,i
CC(=O)c1c(C)[nH]c(C(=O)OCC(=O)N(C)C)c1C,i
Cc1ccc(S(=O)(=O)NC2=NCN(CCOC(=O)c3ccc([N+](=O)[O-])cc3)CN2)cc1,1.5
Oc1ccc(N2CCN(c3ncnc4sc5c(c34)CCC5)CC2)cc1,1.8
CC(=O)Nc1ccc(SCC(=O)N(CCC#N)c2ccc(C)cc2)cc1,0.4
CCc1nc2ccccc2n1CC(=O)N1CCN(S(=O)(=O)c2cccc(C(F)(F)F)c2)CC1,i
Cc1ccc(C)c(-n2c(SCC(=O)Nc3nnc(C)s3)nnc2-c2ccoc2C)c1,0.6
O=C(CCc1ccccc1)N1CCN(c2ccc(Cl)cc2)CC1,1.5
O=C(CSc1ccccc1C(=O)NCCCN1CCCC1=O)NCc1ccco1,0.2
CN1CCc2nc(SCC(=O)OC(C)(C)C)c(C#N)cc2C1,i
O=C(CCNC(=O)Cn1cnc2ccccc2c1=O)NCC1COc2ccccc2O1 (stereo unspecified),i
COc1ccc(C(=O)O)cc1S(=O)(=O)Nc1cccc(C)c1,i
Cc1ccc(C(=O)CSc2nnc(-c3ccco3)o2)o1,0.1
Cc1ccc(N2CCN(c3ccc(C)cc3)C2c2ccncc2)cc1,0.4
CCOC(=O)c1c(NC(=O)CSc2n[nH]c(-c3ccco3)n2)sc(C)c1C,0.1
Cc1cc(O)c(-c2cc(C(=O)NCc3ccc4c(c3)OCO4)[nH]n2)cc1C,i
O/N=C1\CCC2CN(C3CCCCC3)CC2C1 (stereo unspecified),0.7
CC1Cn2c(nnc2-c2cc3ccccc3cc2O)S1 (stereo unspecified),2.0
COc1cc(OC)nc(NC(=O)CN2CCN(c3ccc(F)cc3)CC2)n1,i
Cc1ccc(NC(=O)NCCCN2CCOCC2)cc1,1.1
CCN1CC2=C(OC(N)=C(C#N)C2c2cccs2)/C(=C\c2cccs2)C1 (stereo unspecified),1.7
c1cncc(CNc2ccc3c(c2)OCO3)c1,1.7
Cc1ccc(C(=O)CSc2nccn2-c2ccccc2)cc1,i
O=C(N1CCOCC1)N(Cc1ccccc1)c1ccccn1,i
COc1ccc(C2C(C#N)=C(N)OC3=C2C(=O)CC(C)C3)c(OC)c1OC (stereo unspecified),i
c1coc(CSCc2cn3cccnc3n2)c1,8.9
CC1(C)CC(=O)C2=C(C1)N(c1ccccc1)C(N)=C(C#N)C2c1ccsc1 (stereo unspecified),i
COc1ccc(Cl)cc1C(=O)Nc1ccc2c(c1)OCO2,0.2
COc1ccc(C2C(C(=O)NCc3ccccn3)c3ccccc3C(=O)N2C)cc1OC (stereo unspecified),0.1

# Brought forward from above: 5 entries; new compounds follow.
SMILES,H5N1 antiviral
COc1ccc(C2C(C#N)=C(N)OC3=C2C(=O)CC(C)C3)c(OC)c1OC (stereo unspecified),i
c1coc(CSCc2cn3cccnc3n2)c1,8.9
CC1(C)CC(=O)C2=C(C1)N(c1ccccc1)C(N)=C(C#N)C2c1ccsc1 (stereo unspecified),i
COc1ccc(Cl)cc1C(=O)Nc1ccc2c(c1)OCO2,0.2
COc1ccc(C2C(C(=O)NCc3ccccn3)c3ccccc3C(=O)N2C)cc1OC (stereo unspecified),0.1
CCC1CCCCN1S(=O)(=O)c1ccc(C(=O)Nc2nnc(-c3ccccc3Cl)o2)cc1 (stereo unspecified),0.4
CCSc1nnc([C@@H](N)Cc2c[nH]c3ccccc23)o1,i
O=C1OCCC1Sc1ncnc2sc3c(c12)CCC3 (stereo unspecified),0.1
COc1ccc(-n2nc3c(c2NC(=O)C2CCCC2)CS(=O)C3)cc1 (stereo unspecified),0.5
Cn1ncc2nnn(-c3ccccc3)c(=O)c21,2.1
CCCCc1nc2c(=O)[nH]c3ccccc3c2o1,i
CC(NC(=O)c1cc(-c2ccc(Br)cc2)on1)c1ccccc1 (stereo unspecified),0.8
Cc1nc2ccc(N=NC3=C(O)CCCC3=O)cc2s1,0.8
Cc1ccc(NC(=O)Cn2cncc2-c2ccc([N+](=O)[O-])cc2)cc1C,0.2
CC1CCCN(C(=O)CSc2nnc(-c3cccnc3)n2C2CCCCC2)C1 (stereo unspecified),1.8
CCCc1nc(-c2ccc(-c3ccc(F)cc3)cc2)no1,i
Cn1c(SCC(=O)Nc2ccc3c(c2)oc2ccccc23)nnc1-c1ccccc1,0.7
Cn1c(SCc2cc(=O)n3cc(Br)ccc3n2)nnc1C1COc2ccccc2O1 (stereo unspecified),1.0
Cc1cc(C)nc(N2CCCC(C(=O)Nc3ccc4nc(C)c(C)nc4c3)C2)n1 (stereo unspecified),i
NC(=O)c1ccccc1NC(=O)CCN1C(=O)c2ccccc2C1=O,0.3
O=C(NCc1ccco1)C1CCCN(S(=O)(=O)c2ccc(Cl)cc2)C1 (stereo unspecified),0.1
CCOC(=O)C(C)c1nn(C)c(=O)c2ccccc12 (stereo unspecified),i
CN(Cc1ccccc1)C(=O)C1CCN(Cc2ccc(F)cc2)CC1,i
Cc1cccc(N2CCN(C(=O)C(C)n3nc(C)n4c(cc5occc54)c3=O)CC2)c1C (stereo unspecified),0.1
CNC(=O)CSc1nc2nn(-c3ccccc3)c(=O)c-2c2n1CCCCC2,i
COc1ccc(NC(=O)CN2CCCC(C)C2)c([N+](=O)[O-])c1 (stereo unspecified),0.7
CC(C)Sc1nnc([C@H](C)NC(=O)OC(C)(C)C)o1,0.4
CCOCCCNC(=O)C1CCN(S(=O)(=O)N2CCCCC2)CC1,i
Cc1ccc(S(=O)(=O)N2CCN(C(=O)c3ccccc3)C2C(C)C)cc1 (stereo unspecified),0.0
O=C1CSC(c2cn(-c3ccccc3)nc2-c2ccccc2)N1Cc1ccco1 (stereo unspecified),2.3
COc1ccc(OC)c(-c2nnc(SCC(=O)N3CCCc4ccccc43)o2)c1,i
COC(=O)CSC1=C(C#N)C(c2cccc(OC)c2)CC(=O)N1 (stereo unspecified),i
COc1ccc(/C=C/C(=O)Oc2ccc(/C=N/NC(=O)COc3c(C)cccc3C)cc2)cc1,i
Nc1c(C(=O)Nc2nc3ccccc3s2)sc2nc(-c3cccs3)ccc12,0.6
O=C(Nc1ccccc1)N(CCCN1CCOCC1)Cc1ccccc1F,i
O=C(Nc1cccnc1)C1CC(c2ccc(Cl)c(Cl)c2)=NO1 (stereo unspecified),0.5
COC(=O)c1ccc(CN2C(=O)c3ccccc3S2(=O)=O)cc1,i
CCCc1nc(C)c(-c2ccc(OC)c(OC)c2)c(=O)[nH]1,i
CCOC(=O)c1cccc(NC(=O)CCc2nc(-c3ccccc3F)no2)c1,i
Cn1c(=O)[nH]c(=O)c2c1ncn2CCN1CCCCC1,i
CCc1n[nH]c(=O)n1Cn1c(CC)n[nH]c1=O,0.3
Nc1cccc2c1C(=O)N(C(=O)c1ccc(S(=O)(=O)N3CCCCCC3)cc1)C2=O,i
Cc1ccc(-n2c(Cc3ccccc3)n[nH]c2=S)cc1,1.2
O=C(Nc1cccc(S(=O)(=O)c2cccc(NC(=O)C3CC3)c2)c1)C1CC1,i
Cc1ccc(-n2c(=O)cc(N3CCN(Cc4ccccc4)CC3)[nH]c2=O)cc1,i
O=C(NC1C(=O)NNC1c1ccccc1)c1ccc(F)cc1 (stereo unspecified),0.2
CCOc1ccc(C(Nc2ccc(C)cc2)P2(=O)OCCCO2)cc1 (stereo unspecified),0.8
CCN(CC)c1ccc(C(=O)OCC(=O)NCC2CCCO2)cc1 (stereo unspecified),1.2
COc1ccc(-c2cc(=O)oc3cc(OC(C)C(=O)O)ccc23)cc1 (stereo unspecified),1.2
O=C(c1ccco1)N1CCN(c2cc(C(F)(F)F)nc3ncnn23)CC1,1.5

# Overlap with the part before: 4 compounds; new compounds follow.
SMILES,H5N1 antiviral
CCOc1ccc(C(Nc2ccc(C)cc2)P2(=O)OCCCO2)cc1 (stereo unspecified),0.8
CCN(CC)c1ccc(C(=O)OCC(=O)NCC2CCCO2)cc1 (stereo unspecified),1.2
COc1ccc(-c2cc(=O)oc3cc(OC(C)C(=O)O)ccc23)cc1 (stereo unspecified),1.2
O=C(c1ccco1)N1CCN(c2cc(C(F)(F)F)nc3ncnn23)CC1,1.5
CCCc1nnc(NC(=O)CCCC(=O)O)s1,i
Cc1ccnc(SCCn2c(N3CCN(Cc4ccccc4)CC3)nc3c2c(=O)[nH]c(=O)n3C)n1,3.8
Cc1cccc(N(CC(N)=O)S(C)(=O)=O)c1C,0.7
C=CCNC(=O)c1cc(-c2ccccc2O)on1,2.1
c1cc(CNc2ccc3c(c2)OCCO3)ccn1,1.4
CCN(c1ccccc1)S(=O)(=O)c1ccc(NC(=S)NC(=O)c2cccs2)cc1,i
Cc1ccc(-c2c3c(=O)n(C)c(=O)n(C)c3cn2Cc2ccccn2)cc1,i
CCOc1nc(NCCc2ccc(OC)c(OC)c2)nc(N2CCN(c3ccc(OC)cc3)CC2)n1,i
CC1CCc2c(sc(NC(=O)CN3CCN(C(=O)c4ccco4)CC3)c2C#N)C1 (stereo unspecified),i
Cc1ccc(C)c(S(=O)(=O)NC(C)C(=O)Nc2ccc(-c3nc4ccccc4s3)cc2)c1 (stereo unspecified),i
O=C(NCc1ccccn1)C1CCN(Cc2cnn(-c3ccccc3)c2-n2cccc2)CC1,0.4
O=C(CCn1nnc2ccccc2c1=O)N[C@@H](Cc1ccccc1)C(=O)O,0.5
c1ccc(C2=Nn3c(nnc3-c3ccncc3)SC2)cc1,5.0
COc1ccc(N2C(=O)CC(N3CCCC4CCCCC43)C2=O)cc1 (stereo unspecified),0.9
COc1cccc(-c2nc(CS(=O)(=O)CC(=O)NCCCN3CCc4ccccc4C3)c(C)o2)c1,2.3

# Reformatted: entries from further up
COc1ccc(N2C(=O)CC(N3CCCC4CCCCC43)C2=O)cc1 (stereo unspecified)
  H5N1 antiviral: 0.9
CCCc1nnc(NC(=O)CCCC(=O)O)s1
  H5N1 antiviral: i
O=C(CCn1nnc2ccccc2c1=O)N[C@@H](Cc1ccccc1)C(=O)O
  H5N1 antiviral: 0.5

# (more compounds)
SMILES,H5N1 antiviral
Cc1ccc2c(c1)NC(=O)C(CC(=O)NCCCN1CCCC1=O)O2 (stereo unspecified),0.2
C=CCn1c(C)cc(C(=O)COC(=O)C2CC(=O)N(Cc3ccccc3)C2)c1C (stereo unspecified),1.8
O=C(CN1CCOCC1)c1ccc2cc[nH]c2c1,0.5
Cc1nnc(SCC(=O)Nc2sc3c(c2C#N)CCCC3)[nH]c1=O,i
Clc1ccc(Cn2cc(/C=N/n3cnnc3)c3ccccc32)cc1,i
CC1=CC(C)(C)N2C(=O)C3(SCC(=O)N3c3ccc(F)cc3)c3cc(C)cc1c32 (stereo unspecified),0.5
COc1cc(CC(=O)Nc2ccc(S(=O)(=O)Nc3ncccn3)cc2)cc(OC)c1OC,0.5
COCCNC(=O)C(c1cccs1)N(C(=O)Cn1nnc2ccccc21)c1cccc(C(C)=O)c1 (stereo unspecified),i
O=C(COC(=O)CCC(=O)c1cccs1)Nc1cccc(S(=O)(=O)N2CCOCC2)c1,i
CC(C)(C)n1nnnc1C(c1cccs1)N(Cc1cccnc1)Cc1ccco1 (stereo unspecified),18
Cc1ccc(Cl)cc1N1CCN(C(=O)CN2C(=O)c3cccc4cccc2c34)CC1,i
CCc1nc(SCC(=O)NCc2ccccc2)c2c(=O)n(C)c(=O)n(C)c2n1,3.9
Cc1cc(N2CCN(S(=O)(=O)c3ccc(Cl)cc3)CC2)c2ccccc2n1,3.2
CCC1Sc2ccccc2N(CC(=O)NCCC2=CCCCC2)C1=O (stereo unspecified),0.4
COc1ccc(CC(=O)NCCc2ccc(S(N)(=O)=O)cc2)cc1,0.7
NC(=S)N/N=C/c1ccc(-c2ccc(Cl)c(Cl)c2)o1,i
O=C(CC(C(=O)N1CCc2ccccc21)n1ccnc1)NCC1CCCO1 (stereo unspecified),1.2
COc1ccc(NC(=O)c2ccc(NS(=O)(=O)c3c(C)noc3C)cc2)cc1OC,i
COC(=O)c1ccc2c(=O)n(CCN3CCOCC3)c(SCC(=O)C(C)(C)C)nc2c1,1.8
CCOc1ccc(Nc2oc(-c3ccco3)nc2C#N)cc1,0.8
O=C(C(Cc1ccccc1)NS(=O)(=O)c1cccc2cccnc12)N1CCc2ccccc21 (stereo unspecified),4.8
C=CCn1c(NC(=O)c2ccc(Br)o2)c(S(=O)(=O)c2ccccc2)c2nc3ccccc3nc21,1.5
O=C(Nc1ccc2c(c1)OCO2)Oc1ccccc1,i
CCC(C(=O)O/N=C(\N)c1ccc(C)cc1)c1ccccc1 (stereo unspecified),1.0
COC(=O)c1ccc(CC(=O)c2ccc(O)cc2O)o1,0.2
CCOc1ccc(OCC)c(NC(=O)CN2CCN(c3cccc(C)c3)C(C)C2)c1 (stereo unspecified),i
Cc1cc(NC(=O)CCC(=O)N2CCC3(CC2)OCCO3)no1,0.8
CCC(=O)N(Cc1cc2ccccc2[nH]c1=O)C(C)C,1.1
COc1cc(OC)cc(N(C(=O)c2ccco2)C(C(=O)NC2CCCC2)c2ccc(N(C)C)cc2)c1 (stereo unspecified),i
COC(=O)c1ccsc1NC(=O)C1=COCCO1,7.6
CC(C)NC(=O)c1cnc(N2CCN(c3ccccn3)CC2)c2ccccc12,0.1
COC(=O)[C@H](Cc1ccccc1)NC(=O)Nc1ccc(S(N)(=O)=O)cc1,0.5
CCSC(=O)N(CC)CC(=O)Nc1c(CC)cccc1CC,1.1
CC(=O)Nc1ccc(S(=O)(=O)NC2(C(F)(F)F)N=C(c3ccccc3)NC2=O)cc1 (stereo unspecified),i
CCCCOc1ccc(-c2nc(SCC(N)=O)n[nH]2)cc1,0.3
